# gsp antag = qHTS for Antagonists of gsp, the Etiologic Mutation Responsible for Fibrous Dysplasia/McCune-Albright Syndrome: qHTS | gsp-mutant cells, cAMP HTRF, 30 min; control for the full effect not named in the record | Potency, µM (doses to about 76.9 µM), without a hit: at the top dose activity change, negative = inhibition, actives largely listed as inhibitors | AID 624288, 2012 | 0.4% of 340,000 active; active = falling curve of any shape with a large fitted effect; inconclusive = falling curve, mostly with a smaller effect; inactive = flat or rising curve; cell line not stated here;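 further: intracellular cAMP measured with PDE inhibitor Ro 20-1724 present during compound exposure; potency means the concentration at half of the fitted maximal effect; on the % scale 0 is the no-effect control and ±100 the full control effect; nearly all actives have a fitted effect of over 65% in size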
#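 Cells in G418 medium, seeded 16-24 h, 37C; buffer exchange to DPBS + 1 mM CaCl2, 0.5 mM MgCl2, 0.05% BSA; cpds in DMSO + […] (300 uM stock), 30 min 37C; HTRF cAMP detection.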
# D2 PAM = Beta-Arrestin HTS for Positive Allosteric Modulators of the Human D2 Dopamine Receptor: Potentiators | D(2) dopamine receptor (Homo sapiens), P14416 | DiscoveRx D2 beta-arrestin cells, luminescence, 90 min; 100% = 57 uM dopamine signal | potentiation, % (no concentration beside the values) | 0.23% of 360,000 active; active = potentiation of 50% or more; inconclusive = 30% to 50%; inactive = 30% or less;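 further: compound concentration not given in the record; tested on top of an EC20 dose of dopamine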
#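 D2 cells co-treated with compound plus 50 nM dopamine (EC20) for 90 min at 37 deg C to detect potentiation. Beta-arrestin recruitment was read as enzyme-fragment luminescence after 1 h at ambient temperature. Full response was set by 57 uM dopamine.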
# Sfp PPTase inh = qHTS Assay for Inhibitors of Bacillus subtilis Sfp phosphopantetheinyl transferase (PPTase); AID 1490, 2009; Potency, µM, for the others: max response, negative = inhibition, actives largely listed as inhibitors; Biochemical Sfp PPTase activity, qHTS; 4'-phosphopantetheinyl transferase ffp (Bacillus subtilis), Q9F4F7; 3.5% of 310,000 active; active means well fitted inhibition curve with a large enough effect; inconclusive means small, poorly fitted or top-dose-only effect, or another doubt; inactive means no such curve, though single readings can be large or run the other way;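 further: the enzyme is Sfp with the accession as filed and its product quenches rhodamine fluorescence; potency means the concentration at half of the fitted maximal effect; 0% = enzyme reaction without inhibitor and -100% = no enzyme wells; top concentration of the series not given in the record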
#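 After 15 min at room temperature with compound, 15 nM Sfp received 5 uM rhodamine-CoA plus 12.5 uM BHQ-2-ybbR (50 mM Hepes pH 7.6, 10 mM MgCl2). Rate came from the fluorescence difference over 30 min, ex 525/em 598 nm.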
# Menin-MLL FL inh = qHTS Assay for Inhibitors Targeting the Menin-MLL Interaction in MLL Related Leukemias: Competition With Fluorescein Labeled MLL-derived Peptide; Fluorescence polarization, fluorescein-MLL peptide displacement from menin; FP activity change, % at 61.4 µM; 290,000 tested, under 10 active; AID 1766, 2009; inconclusive = falling polarisation curve, or a change in total fluorescence; inactive = total fluorescence flat and polarisation flat or rising; no compound was filed as active; the % refers to the polarisation; negative = inhibition;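 further: % of control where 0% means no effect; inhibitors lower the polarisation; unlabelled MLL peptide was the positive control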
# gsp agonist = qHTS for Agonist of gsp, the Etiologic Mutation Responsible for Fibrous Dysplasia/McCune-Albright Syndrome: qHTS; gsp mutant cells, cAMP HTRF, 30 min; control for the full effect not named in the record; Potency, µM (doses to about 76.9 µM), without a hit: at the top dose activation (cAMP increase), usual class: activators; 0.13% of 340,000 active; AID 624287, 2012; active = well fitted activation curve with a large enough effect; inconclusive = small, poorly fitted or top-dose-only effect, or another doubt; inactive = no such curve, though single readings can be large or run the other way; cell line not stated here;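 further: phosphodiesterase inhibitor Ro 20-1724 added with compounds to block cAMP breakdown; potency means the concentration at half of the fitted maximal effect; nearly all actives have a fitted effect of over 60% in size; about a fifth of the inactives were tested at one dose only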
#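 Cells stably selected in G418 were plated at 2000/well, grown 16-24 hr, then given compounds in DMSO with the PDE inhibitor […] (300 uM solution added) for 30 min at 37C; cAMP was read by HTRF.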
# TRPV1 potentiator = HTS Assay for Compounds that Act as Potentiators of the Vanilloid Receptor 1; Transient receptor potential cation channel subfamily V member 1 (Homo sapiens), Q8NER1; potentiation, % at 8.33 µM; TRPV1-expressing cells, Fluo-8 calcium influx, capsaicin EC20 potentiation; host cell line not named in the record; control for the full effect not named in the record; AID 540277, 2011; 0.02% of 320,000 active; active means potentiation above 80%; inconclusive means 30% to 80%; inactive means below 30%; further: 0% is about no effect
# Target sequence (Q8NER1 whole entry, looked up): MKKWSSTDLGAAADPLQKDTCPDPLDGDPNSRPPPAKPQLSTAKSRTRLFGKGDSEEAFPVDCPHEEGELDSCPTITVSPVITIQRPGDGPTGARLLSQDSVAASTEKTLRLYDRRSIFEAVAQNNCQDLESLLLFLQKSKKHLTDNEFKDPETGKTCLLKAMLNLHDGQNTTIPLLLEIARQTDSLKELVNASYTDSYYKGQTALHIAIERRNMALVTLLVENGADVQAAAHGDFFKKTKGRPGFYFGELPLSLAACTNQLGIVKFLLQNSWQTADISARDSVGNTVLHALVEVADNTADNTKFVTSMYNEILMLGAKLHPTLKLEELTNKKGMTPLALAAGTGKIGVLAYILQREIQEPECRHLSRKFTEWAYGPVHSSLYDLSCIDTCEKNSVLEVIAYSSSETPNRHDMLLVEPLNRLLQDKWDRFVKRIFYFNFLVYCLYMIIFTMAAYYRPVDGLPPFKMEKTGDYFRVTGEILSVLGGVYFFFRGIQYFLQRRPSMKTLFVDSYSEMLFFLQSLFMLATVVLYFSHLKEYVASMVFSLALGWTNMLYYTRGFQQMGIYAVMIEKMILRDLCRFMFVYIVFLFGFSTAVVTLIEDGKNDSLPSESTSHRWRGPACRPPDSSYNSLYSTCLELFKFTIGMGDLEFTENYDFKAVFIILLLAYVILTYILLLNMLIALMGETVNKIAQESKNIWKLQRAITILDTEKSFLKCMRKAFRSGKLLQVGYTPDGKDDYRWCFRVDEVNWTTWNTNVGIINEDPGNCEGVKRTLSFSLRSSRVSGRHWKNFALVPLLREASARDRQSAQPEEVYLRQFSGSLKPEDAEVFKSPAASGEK
#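 Fluo-8 calcium influx in TRPV1-expressing cells, kinetic read (ex 480/em 520 nm). Compound added and read 3 min for agonist activity, followed by capsaicin at EC20 final and 2 min further read for enhancement.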
# ClpP mod = qHTS Assay for Activators of ClpP; ATP-dependent Clp protease proteolytic subunit (Bacillus subtilis (strain 168)), P80244; purified B. subtilis ClpP, FRET peptide cleavage, 20 min; Potency, µM (top dose mostly 57.5 µM), inactives show top-dose activity change, negative = active; 1.9% of 340,000 active; AID 651965, 2013; active = well fitted falling curve with a large enough effect; inconclusive = small, poorly fitted or top-dose-only effect; inactive = no such curve, though single readings can be large or run the other way; further: potency means the concentration at half of the fitted maximal effect; the source files actives as falling curves though it sought activators and does not explain the sign; nearly all actives have a fitted effect of over 65% in size; many hits overshoot -100%
# Target sequence (P80244 whole entry, looked up): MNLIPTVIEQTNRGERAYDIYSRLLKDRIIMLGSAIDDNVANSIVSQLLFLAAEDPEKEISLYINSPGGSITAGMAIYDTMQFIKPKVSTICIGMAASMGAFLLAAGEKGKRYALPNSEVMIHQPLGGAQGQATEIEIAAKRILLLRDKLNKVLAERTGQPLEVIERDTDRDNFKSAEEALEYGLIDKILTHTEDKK
#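 Purified B. subtilis ClpP, 10 microg/mL final in Tris/HCl pH8 with KCl, BSA, glycerol and Tween-20, cleaved an Abz/nitrotyrosine-quenched decapeptide. Fluorescence (ex 320, em 430) was read at 0 and 20 min at room temperature. Delta was normalized to 5.8 microM ADEP and DMSO/no-enzyme controls.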
# Numbers without * were called inactive; ? = inconclusive; · = not tested or not shown; [ ] = remark or other dose. Rows are unselected; overall some 5.1% were active at least once.
# Below each compound: gsp antag	D2 PAM	Sfp PPTase inh	Menin-MLL FL inh	gsp agonist	TRPV1 potentiator	ClpP mod
CC(NC(=O)C1CCCCC1)C(c1cccs1)N1CCN(C)CC1 (stereo not given)
 : 12%	-4	-2%	1.0	27%	3	-1.1%
C[C@H](NC(=O)c1nc[nH]c1C(=O)N1CCNCC1)C(=O)OCc1ccccc1
 : 3%	-2	·	·	·	7	1.7%
COc1ccc(CCNS(=O)(=O)c2cccc([N+](=O)[O-])c2)cc1
 : 9%	6	9%	-4.2	-28%	0	·
Cc1ccccc1NC(=O)NCCCN1CCN(C)CC1
 : 11%	5	-1%	0.2	11%	?	1.5%
COc1cc2c(cc1NC(=O)CN(C)Cc1nc3ccccc3c(=O)[nH]1)oc1ccccc12
 : -10%	-3	?	4.9	0%	?	-4.0%
N#Cc1ccc(NC(=O)Cn2cnc(S(=O)(=O)N3CCCCC3)c2)cc1
 : 13%	-4	-1%	-0.5	-1%	4	-1.6%
O=C1C=C(NCCc2cc(Br)c(O)c(Br)c2)C(=O)c2ncccc21
 : -4%	?	·	·	?	·	-13%
Cc1ccc(-c2nc(C3CCN(S(C)(=O)=O)CC3)no2)cc1
 : -1%	-14	-5%	-1.1	8%	-13	-0.3%
O=C(CNC(=O)c1ccc(Cl)cc1Cl)OCc1nnc(-c2ccccc2)o1
 : -18%	-6	·	·	-3%	3	-15%
CC(=O)c1cccc(NC(=O)COC(=O)COc2c(Cl)cc(Cl)c3ccc(C)nc23)c1
 : -12%	-7	13%	0.8	0%[15.4 µM]	-4	72%
CCNC(=S)NNC(=O)c1cc(C)on1
 : 6%	-8	56µM*	0.3	-24%	-2	0.2%
CC(=O)Nc1ccc(OS(=O)(=O)c2ccccc2C)cc1
 : ·	8	18%	-0.8	-10%[15.4 µM]	-8	·
Cc1c(NC(=O)C(c2ccccc2)c2ccccc2)cccc1C(=O)O
 : -5%	-3	13%	3.6	9%	9	0.2%
N#CCSc1ccccc1NC(=O)COC(=O)Cc1c[nH]c2ccccc12
 : -3%	-5	·	·	5%	16	2.4%
COc1cccc(COC(=O)C2CCN(S(=O)(=O)c3ccc(C)cc3C)CC2)c1OC
 : 2%	-9	·	·	7%	-2	2.5%
COc1cccc2sc(Nc3nnc(-c4ccc(F)cc4)o3)nc12
 : ?	8	3%	-0.2	28%	?	4.1%
Cc1ccc(OCC(=O)N/N=C\c2cn(C)c3ccccc23)c([N+](=O)[O-])c1
 : 10%	-8	-18%	-1.0	3%	?	-1.2%
CCOC(=O)C1CCN(C(=O)Cn2cc(C(=O)c3ccco3)c3ccccc32)CC1
 : 4%	-5	1%	-2.4	?	5	0.2%
O=C(Nc1ccc(Oc2c(F)c(F)c(F)c(F)c2F)cc1)OC1CCN2Cc3ccccc3N=C12 (stereo not given)
 : 5%	-13	-6%	3.1	-16%	11	·
CC(=O)C1=C(c2ccccc2)NC(=S)NC1c1cc(Cl)c(OC(C)C)c(Cl)c1 (stereo not given)
 : -12%	-10	6%	3.6	21%	-9	0.4%

# Single records (already shown):
# Results for `CCNC(=S)NNC(=O)c1cc(C)on1` = gsp antag = 6%; D2 PAM = -8; Sfp PPTase inh = 56µM*; Menin-MLL FL inh = 0.3; gsp agonist = -24%; TRPV1 potentiator = -2; ClpP mod = 0.2%
# Results for `COc1cccc2sc(Nc3nnc(-c4ccc(F)cc4)o3)nc12` = gsp antag = ?; D2 PAM = 8; Sfp PPTase inh = 3%; Menin-MLL FL inh = -0.2; gsp agonist = 28%; TRPV1 potentiator = ?; ClpP mod = 4.1%

# Later entries:
# Below each compound: gsp antag	D2 PAM	Sfp PPTase inh	Menin-MLL FL inh	gsp agonist	TRPV1 potentiator	ClpP mod
O=c1c2cc3c(cc2[nH]c(=S)n1CCN1CCOCC1)OCO3
 : 13%	-3	-7%	1.4	-26%	6	-0.8%
O=c1c2cn[nH]c2nc(SCc2cc(=O)n3cc(Br)ccc3n2)n1-c1ccc(Br)cc1
 : 12%	3	-3%	-0.4	-17%[15.4 µM]	5	·
CCn1c(=O)n(Cc2ccco2)c(=N)c2c3c(sc21)COC(C)(C)C3
 : 3%	3	8%	1.2	-21%	-1	-5.5%
COc1ccccc1NC(=O)CN1CCOCC1
 : 2%	-1	22%	4.4	4%	10	0.4%
CC(C)CNC(=O)CC(NCC(C)C)C(=O)O (stereo not given)
 : ·	·	-5%	-1.2	·	-15	·
COc1ccc(NS(=O)(=O)c2cc(C(=O)N3CCC3)ccc2C)cc1
 : -9%	-4	·	·	?	21	0.9%
Nc1c(C(=O)c2ccc(Cl)cc2)sc2c1c(=O)[nH]c(=O)n2-c1ccccc1
 : -2%	-8	18%	4.4	2%[15.4 µM]	4	-1.7%
CCC1CCC2(CC1)NC(=O)N(CC(=O)N1CCc3ccccc31)C2=O (stereo not given)
 : 4%	4	·	·	-9%	·	-4.4%
CCc1nc2ccccc2c(C(=O)OC2CCOC2=O)c1C (stereo not given)
 : -7%	22	5%	0.6	-26%	-9	-1.7%
O=C(NCC1CCCO1)c1sc2ccccc2c1Cl (stereo not given)
 : 4%	-2	6%	10	25%[15.4 µM]	-11	-4.9%
O=C1C(Cl)=C(N2CCOCC2)C(=O)N1c1ccccc1
 : -8%	-8	5%	-0.9	19%	-6	-1.2%
CS(=O)(=O)NC1CCN(Cc2ccccc2)CC1
 : -3%	-9	15%	1.2	15%	0	-2.1%
CN(C)S(=O)(=O)c1cccc(NC(=O)CCSc2ccc(Cl)cc2)c1
 : -22%	-25	1%	2.0	-4%	-4	0.3%
Cc1cc(C)n(-c2nc(NCCC(C)C)c3c4c(sc3n2)COC(C)(C)C4)n1
 : 2%	-35	14%	2.4	?	-7	-6.4%
Cc1occc1C(=O)NNC(=S)Nc1ccccc1
 : 4%	-21	1%	-6.0	6%	-13	-3.0%
O=C(CSc1ccc2c(c1)OCCO2)NCC1CCCO1 (stereo not given)
 : -5%	-23	-16%	-1.5	-23%	21	-0.9%
CCc1ccccc1OCC(=O)NC1CCCC1
 : -1%	-13	10%	-0.1	?	11	-2.0%
O=C1c2cccc3cccc(c23)C(=O)N1c1ccc(O)cc1
 : 1%	-1	50µM*	0.5	1%	1	-5.1%
NS(=O)(=O)c1ccc(NS(=O)(=O)c2ccc(Br)cc2)cc1
 : -1%	-5	24%	0.2	9%[15.4 µM]	-2	·
CNC(=O)c1cc(S(=O)(=O)Nc2ccc3c(c2)OCCO3)ccc1C
 : 2%	-1	27%	2.0	8%[15.4 µM]	?	1.2%

# Below each compound: gsp antag	D2 PAM	Sfp PPTase inh	Menin-MLL FL inh	gsp agonist	TRPV1 potentiator	ClpP mod
Cc1ccc(C(=O)Nc2ccc(O)c(C(=O)O)c2)o1
 : 10%	14	-10%	2.3	16%	-5	-13%
COc1cccc(CN2CCN(C(=O)c3cc(-c4ccccn4)nc4ccc(Cl)cc34)CC2)c1
 : -6%	1	-1%	0.2	-2%[15.4 µM]	-32	-0.7%
CCN(CC)S(=O)(=O)c1ccc(Nc2nc3ccccc3n3nnnc23)cc1
 : 4%	23	-10%	6.6	14%	-6	?
COc1ccc(C2C(C(=O)OCC(=O)N3CCCCC3)CCC(=O)N2c2ccc(OC)cc2)cc1 (stereo not given)
 : -1%	-7	6%	-0.6	-6%	-13	1.5%
Cc1ccc(NC(=O)n2ncc3c(C)cccc32)cc1F
 : -8%	-18	-9%	1.9	29%	-8	-0.2%
Cc1cccc(C(=O)OCC(=O)NNC(=O)c2cccs2)c1O
 : -8%	24	·	·	-43%[inhibitor]	-3	0.1%
Cc1c(N=C2NC(=O)/C(=C/c3ccc(O)cc3)S2)c(=O)n(-c2ccccc2)n1C
 : -12%	-18	18%	16	-54%[inhibitor]	17	2.3%
CCOc1ccc(NC(=O)CSc2nnc(Cc3csc(C)n3)o2)cc1
 : -6%	-6	16%	·	2%[15.4 µM]	-10	-0.3%
O=C(O)C1Cc2ccccc2CN1S(=O)(=O)c1ccc2ccccc2c1 (stereo not given)
 : -9%	-3	?	0.1	2%	8	-0.7%
CCCn1c(=O)c2ccccc2n2c(SC(C)C(N)=O)nnc12 (stereo not given)
 : -10%	1	16%	0.2	7%[15.4 µM]	18	·
Clc1ccc(SCc2cn3cccnc3n2)cc1
 : 1%	2	4%	-0.5	-13%	2	-0.1%
CCOc1ccc(NC(=O)C2CCN(C(=O)N3CCOc4ccccc43)CC2)cc1
 : -5%	-3	19%	-3.1	-3%	3	-1.5%
c1ccc(Nc2nc(-c3ccccc3)ns2)cc1
 : -1%	-10	0%	2.4	7%[15.4 µM]	5	·
O=S(=O)(NCC1CCCO1)c1ccc(S(=O)(=O)N2CCc3ccccc3C2)cc1 (stereo not given)
 : 14%	0	6%	-2.3	-27%	-6	1.1%
O=C(NCCCNC(=O)c1ccc(-c2cccc(Cl)c2)o1)c1cnccn1
 : -19%	-8	-5%	0.3	5%[15.4 µM]	3	·
CCC(=O)Nc1nnc(SCC(=O)NCCc2ccc(OC)c(OC)c2)s1
 : 8%	-4	20%	2.0	-20%	1	1.1%
CN1C(C(=O)NCc2ccccc2)CC2Cn3c(nc4cc5ccccc5cc43)C21 (stereo not given)
 : -4%	-5	10%	?	·	17	?

# Screens from PubChem.
